High-throughput results as filed in PubChem BioAssay.
CBX7 inh – CBX7 inhibition, primary AlphaScreen; normalised signal (fraction of DMSO) (concentration not given with the values); O95931; AID 1224903; 66,000 compounds, 1.1% hits; AlphaScreen His6-CBX7 / biotin-H3K27me3 peptide binding; stronger effect = lower value; in the data active = normalised signal below about 0.5;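 note: 100 nL library stock added to about 20 µL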
Target sequence (O95931 whole entry, looked up): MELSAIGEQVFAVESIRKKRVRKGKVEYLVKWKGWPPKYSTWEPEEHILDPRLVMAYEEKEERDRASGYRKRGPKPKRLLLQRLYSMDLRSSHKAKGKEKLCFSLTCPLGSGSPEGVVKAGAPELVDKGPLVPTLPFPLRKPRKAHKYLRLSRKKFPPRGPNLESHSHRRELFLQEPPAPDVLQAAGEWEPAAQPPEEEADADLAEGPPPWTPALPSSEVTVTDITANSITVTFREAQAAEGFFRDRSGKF
CBX7 inh z-score – further read-out of CBX7 inh, marked with its call; z-score; measured here: z-score of CBX7 signal; some inactives read as strong as hits; reference of the scale not given here;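 same signal on another scale; lower means less binding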
The depositor's hits bear a star. These rows are one share of the data; rates above refer to the full screens.

The line under a structure holds: CBX7 inh	CBX7 inh z-score
- Cc1cc2nc(-c3ccc(Cl)cc3)c(-c3ccc(Cl)cc3)nc2cc1C
 : 1.5	3.2
- COc1ccc(Nc2cc(C(=O)NC3CCCCC3)c3ccccc3n2)c(OC)c1
 : 0.66	-5.2
- O=C(CSc1ncn[nH]1)Nc1nc2ccccc2s1
 : 1.2	1.9
- Cc1ccc(Cl)cc1NC(=O)C(Cc1ccccc1)NS(=O)(=O)c1ccc2c(c1)CCC(=O)N2 (stereo not drawn)
 : 0.96	-0.97
- O=C(Nc1nc(-c2cccs2)cs1)c1ccc(F)cc1
 : 0.85	-0.54
- CCOc1ccccc1NC1c2ccccc2C(=O)N1c1ccc(Cl)cn1 (stereo not drawn)
 : 0.75	-3.6
- Cc1c(C(=O)Nc2cnc3ccccc3c2)sc2ncn(CC(=O)N3CCCC(C)C3)c(=O)c12 (stereo not drawn)
 : 0.94	-0.38
- Cc1ccc2cc(CCNC(=O)COc3ccc(Cl)cc3Cl)c(=O)[nH]c2c1C
 : 1.1	0.37
- CCOC(=O)c1[nH]c2c(c1Cc1ccccc1OC)C(=O)CC(c1ccccc1)C2 (stereo not drawn)
 : 0.77	-1.5
- Cc1cc(N2CCOCC2)nc2ccc(NC(=O)CCC(=O)N3CCC(C)CC3)cc12
 : 1.1	0.092
- Cc1ccc(N2C(=O)CC(Cc3ccc(Cl)cc3)C2=O)cc1C (stereo not drawn)
 : 1	0.3
- c1ccc2c(c1)N1CCN=C1N2CCN1CCOCC1
 : 0.8	-2.1
- CCCc1cc(C(=O)NCCc2ccccc2)no1
 : 1.1	2.9
- CC1C(=O)CC(c2ccc(Cl)cc2)NC1c1ccc(Cl)cc1 (stereo not drawn)
 : 1.2	3.7
- COc1ccc(C(=O)NCc2nnc(SCC(=O)Nc3nnc(C)s3)o2)cc1OC
 : 1	1.2
- COc1ccccc1N1C(=O)CC(N2CCN(c3ccc(F)cc3)CC2)C1=O (stereo not drawn)
 : 1	0.56
- O=C(NCC1CCCO1)c1nn2c(C(F)(F)F)cc(-c3cccs3)nc2c1Cl (stereo not drawn)
 : 0.88	-1.9
- CCN(CC)C(=O)c1ccc2c(c1)N(Cc1ccc(F)cc1)C(=O)c1ccccc1S2(=O)=O
 : 1.2	2.6
- CCCCN(CCCNC(=O)CN1C(=O)C(CC)Oc2ccc(C)cc21)Cc1ccccc1 (stereo not drawn)
 : 1.1	2.1
- O=C(CCN1C(=O)c2ccccc2C1=O)Nc1nc(-c2ccc(Br)cc2)cs1
 : 1	0.88
- CC1CC(C)CN(c2nc3nonc3nc2N2CC(C)CC(C)C2)C1 (stereo not drawn)
 : 0.91	-1.1
- COc1ccc(Cl)cc1-n1nc(C)c2c1CC(c1ccccc1)CC2=O (stereo not drawn)
 : 1.2	1.4
- Cc1sc2ncnc(N3CCN(c4ccc(Cl)c(Cl)c4)CC3)c2c1C
 : 1.2	0.42
- COc1ccc(CNC(=O)CS(=O)(=O)Cc2nc(-c3ccccc3Cl)oc2C)cc1
 : 0.96	-1.2
- O=C1CN(C(=O)C2CCCC2)C(c2ccccc2)c2cc(Br)ccc2N1 (stereo not drawn)
 : 1	0.2
- COc1ccccc1NC(=O)CCCNC(=O)Cn1cnc2sc(C)c(C)c2c1=O
 : 1	0.33
- CCCOc1ccc(N2C(=O)CC(N3CCN(c4ccc(F)cc4)CC3)C2=O)cc1 (stereo not drawn)
 : 1	0.019
- Cc1ccc(-c2nnc(Nc3ccccc3)c3ccccc23)cc1S(=O)(=O)NC(C)(C)C
 : 0.84	-3
- COc1cc2c(cc1OC)C(C(=O)Nc1ccc(C)c(F)c1)C1c3ccccc3CCN1C2=O (stereo not drawn)
 : 1	1.5
- Cc1csc(NC(=O)CSc2nnc(Cc3cc(=O)[nH]c(=O)[nH]3)n2-c2ccc(Cl)cc2)n1
 : 0.98	-0.59

Other compounds:
The line under a structure holds: CBX7 inh	CBX7 inh z-score
- Cc1ccc(C2CC(C(F)(F)F)n3nc(C(=O)Nc4cccc(C(C)O)c4)cc3N2)cc1 (stereo not drawn)
 : 0.97	-0.6
- CCc1cccc(NC2c3ccccc3C(=O)N2c2cc(C)ccn2)c1 (stereo not drawn)
 : 1	-0.18
- CCc1cc(-c2[nH]ncc2-c2ccc3c(c2)OCCO3)c(O)cc1OC
 : 0.38*	-13*
- O=C(NCc1ccc(F)cc1)c1ccc2c(c1)N(Cc1c(F)cccc1Cl)C(=O)CS2
 : 1.1	2.9
- Cc1ccc(S(=O)(=O)c2nc(-c3cccc(Cl)c3)oc2NCc2ccccc2)cc1
 : 0.86	-1.3
- N#Cc1ccc(-c2csc(NC(=O)c3c(F)cccc3F)n2)cc1
 : 1	0.23
- O=C1C(Oc2ccccc2)C(c2ccc(F)cc2)N1Cc1ccc2c(c1)OCO2 (stereo not drawn)
 : 0.78	-0.79
- CC1(C)CC(=O)C2=C(C1)N(c1ccc(F)cc1)C(=O)CC2c1cccs1 (stereo not drawn)
 : 0.68	-3.1
- Cc1ccc(-n2ncc(C(=O)Nc3ccc(Br)cc3)c2C2CCNCC2)cc1C
 : 0.98	-0.44
- Cc1cccc(-n2c(Cc3cc(=O)[nH]c(=O)[nH]3)nnc2SC(C)C)c1
 : 1.1	2.3
- Cc1c(NC(=O)c2cc3ccccc3o2)cccc1-c1nc2cc(Cl)ccc2o1
 : 1	0.17
- CCOc1ccc(NC(=O)COc2ccc3oc4c(c3c2)CCCC4)cc1
 : 0.97	-0.27
- Cc1cccc(-c2noc(-c3ccc(Cl)c(Cl)c3)n2)c1
 : 1.2	1.1
- Cc1ccc2c(c1)-c1c(cnn1CC(=O)NCc1ccc(F)cc1)CO2
 : 1.1	2.3
- c1ccc(Sc2ncnc3sc4c(c23)CCCC4)cc1
 : 1	0.39
- CCN1C(=O)c2ccccc2S(=O)(=O)c2ccc(C(=O)N3CC(C)CC(C)C3)cc21 (stereo not drawn)
 : 1	-0.094
- COc1ccc(C(c2sc3nc(C)nn3c2O)N2CCC(C(N)=O)CC2)cc1OC (stereo not drawn)
 : 1	0.67
- CC(=O)N1CCN(c2nc(-c3ccccc3)c3ccccc3n2)CC1
 : 0.91	-0.87
- Cn1ncc(Cl)c1-c1nc(-c2nonc2N)no1
 : 0.95	-1.4
- CCOc1ccc(CCNC(=O)CCn2nc(-c3ccccc3)ccc2=O)cc1OCC
 : 0.98	-0.53
- Cc1ccc(S(=O)(=O)Nc2ccccc2CNc2ccc(C)cc2C)cc1
 : 0.89	-2.8
- O=C(C1c2ccccc2C(=O)N2CCc3ccccc3C12)N1CCN(Cc2ccccc2)CC1 (stereo not drawn)
 : 0.89	-1.8
- Cc1ccc2nc(N3CCOCC3)nc(-c3ccccc3)c2c1
 : 1.2	0.96
- O=C(Nc1cccc(F)c1)c1ccccc1C(=O)c1ncc[nH]1
 : 1	0.91
- COc1ccccc1C(=O)NCc1nc2ccccc2n1Cc1ccccc1F
 : 0.8	-2.3
- COc1ccccc1Nc1ncc(C(=O)Nc2ccc(OC)c(OC)c2)c2ccccc12
 : 1	0.017
- CCN1CCN(CCCNC(=O)CS(=O)(=O)Cc2nc(-c3ccc(C)cc3)oc2C)CC1
 : 0.99	-0.029
- COC(=O)c1ccccc1NC(=O)C1CCCN(c2nnc(-n3cccc3)s2)C1 (stereo not drawn)
 : 0.99	-0.3
- COCCNC(=O)C1CCN(c2cc(C)nc3c(-c4ccc(Cl)cc4)c(C)nn23)CC1
 : 1	0.92
- COc1ccc(CN2C(=O)N(c3ccc(F)cc3)C(=O)C2CC(=O)Nc2ccc(OC)cc2)cc1 (stereo not drawn)
 : 1.1	1.9

3 of the compounds above, as labelled records:
CC1(C)CC(=O)C2=C(C1)N(c1ccc(F)cc1)C(=O)CC2c1cccs1 (stereo not drawn)
  CBX7 inh = 0.68
  CBX7 inh z-score = -3.1

Cc1ccc(-n2ncc(C(=O)Nc3ccc(Br)cc3)c2C2CCNCC2)cc1C
  CBX7 inh = 0.98
  CBX7 inh z-score = -0.44

Cc1cccc(-n2c(Cc3cc(=O)[nH]c(=O)[nH]3)nnc2SC(C)C)c1
  CBX7 inh = 1.1
  CBX7 inh z-score = 2.3

Single records (already shown). Order of values: CBX7 inh | CBX7 inh z-score
Listed for COCCNC(=O)C1CCN(c2cc(C)nc3c(-c4ccc(Cl)cc4)c(C)nn23)CC1 = 1 | 0.92
Listed for CCN1C(=O)c2ccccc2S(=O)(=O)c2ccc(C(=O)N3CC(C)CC(C)C3)cc21 (stereo not drawn) = 1 | -0.094
Listed for Cc1ccc(S(=O)(=O)Nc2ccccc2CNc2ccc(C)cc2C)cc1 = 0.89 | -2.8
Listed for COc1ccc(CN2C(=O)N(c3ccc(F)cc3)C(=O)C2CC(=O)Nc2ccc(OC)cc2)cc1 (stereo not drawn) = 1.1 | 1.9

The results go on.
The line under a structure holds: CBX7 inh	CBX7 inh z-score
- CC1CCCCN1CCNC(=O)CN1N=C(c2ccc(Cl)cc2)CCC1=O (stereo not drawn)
 : 1.1	1.5
- CC1(C(=O)NC2CCCCCCC2)CCC(=O)N1Cc1ccccc1Cl (stereo not drawn)
 : 0.96	-1.3
- CCOC(=O)N1CCN(c2cc(=O)n(-c3ccc(C)cc3)c(=O)[nH]2)CC1
 : 1.1	1.3
- CC(=O)Nc1ccc2nc(NC(=O)c3ccc(C)cc3)sc2c1
 : 0.84	-2
- COc1ccc(OC)c(-c2cc(C(=O)Nc3ccc(F)cc3F)no2)c1
 : 0.95	-0.39
- CC(CCc1ccccc1)NC(=O)c1cc2c(s1)CS(=O)(=O)C2 (stereo not drawn)
 : 1	-0.11
- c1cn2c(NC3CCCCC3)c(-c3ccsc3)nc2cn1
 : 1.2	2.3
- CCOc1ccc2nc(NC(=O)C3CCN(S(=O)(=O)c4c(C)n[nH]c4C)CC3)sc2c1
 : 1.2	5.2
- CCCCn1c(CNC(=O)C(C)(C)C)nc2ccccc21
 : 1.3	3
- COc1ccc(Nc2nc(Cc3ccccc3)nc3sc(C)c(C)c23)cc1OC
 : 1.1	0.098
- COc1ccccc1CNC(=O)CSCc1nc(-c2ccc(OC)c(OC)c2)oc1C
 : 1.1	1.2
- Cc1ccc(CC(=O)Nc2nc3c(s2)C(=O)CC(C)(C)C3)cc1
 : 0.99	-0.41
- CCOc1ccc(C2C(=O)N(C3CCCCCC3)CC(=O)N2Cc2ccccc2OC)cc1OC (stereo not drawn)
 : 0.85	-1.5
- COc1ccc(-n2nc(C(=O)NCC(=O)NCc3ccccc3)c3ccccc3c2=O)cc1Cl
 : 0.96	-0.74
- COc1ccc(N2C(=O)CC(NCC(O)c3ccccc3)C2=O)cc1 (stereo not drawn)
 : 1	0.3
- COc1ccc(-c2nc3ccccn3c2Nc2ccccc2C)cc1
 : 1	0.069
- CCOc1ccc2nc(C)cc(Nc3ccc(OCc4ccccc4Cl)cc3)c2c1
 : 0.6	-5.8
- COc1ccc(-n2c(/C=C/c3cccc4ccccc34)nc3ccccc3c2=O)cc1
 : 1.1	0.088
- CC(=O)N1c2ccc(S(=O)(=O)N(C)Cc3ccccc3)cc2CC1C (stereo not drawn)
 : 1	0.9
- Cc1ccc(NC(=O)C(=O)NCc2ccc3c(c2)OCO3)cc1
 : 1.2	1.4
- COc1ccccc1-c1cc(C(=O)Nc2cc(Cl)ccc2Cl)no1
 : 1.1	2.9
- COc1ccc2c(c1)c(=O)c(S(=O)(=O)c1ccccc1)cn2CC(=O)Nc1ccccc1
 : 0.81	-2.7
- CCc1cccc(C)c1NC(=O)c1cnn(-c2ccccc2)c1C1CCN(C(=O)OC(C)(C)C)CC1
 : 0.93	-0.75
- CCOC(=O)c1sc2ncn(CC(=O)NCc3ccccc3)c(=O)c2c1C
 : 1.1	2.5
- Cc1ccn2c(Nc3ccc4c(c3)OCO4)c(-c3cccs3)nc2c1
 : 0.85	-3.9
- Cc1sc2nc(Cc3ccccc3)nc(Nc3cccc(Cl)c3)c2c1C
 : 1	0.58
- COc1cccc(-c2nn(C)c3sc(C(=O)NCc4ccccc4OC)cc23)c1
 : 0.95	-0.68
- O=C(Nc1ccc2oc(-c3ccc(Br)cc3)nc2c1)c1ccc(-c2ccc(Cl)cc2)o1
 : 1	0.29
- COCCCNC(=O)C1CCN(c2nc3ccccc3[nH]2)CC1
 : 0.89	-1.3
- O=C(NC1CCCC1)C1C2C=CC3(CN(Cc4ccccc4Cl)C(=O)C13)O2 (stereo not drawn)
 : 1.1	1.1

(cont.)
The line under a structure holds: CBX7 inh	CBX7 inh z-score
- CCOC(=O)c1c(-c2ccc(Cl)cc2)csc1NC(=O)COc1ccc(OC)cc1
 : 1.2	2.8
- CC1CCN(c2nc3ccc(C(=O)NCCCN4CCN(C)CC4)cc3s2)CC1
 : 1	0.042
- O=C(Nc1cccc(C(F)(F)F)c1)NC1(c2ccccc2)CC1
 : 1	0.79
- CCOCCc1nnc(NC(=O)c2ccc3c(c2)OCO3)s1
 : 1	0.19
- Cc1ccc2c(c1)c1c3n2CCN(C(C)c2ccccc2)C3CCC1 (stereo not drawn)
 : 1.1	1.6
- CCOCCCNC(=O)c1ccc2c(c1)ncn2-c1cc(OC)ccc1OC
 : 1	-0.013
- CNC(=O)CN1CCN(Cc2ccc(F)cc2Cl)C1=O
 : 0.89	-1.6
- Cc1cc(N2CCCCC2)nc2ccc(NC(=O)CCC(=O)N3CCC(C(N)=O)CC3)cc12
 : 1.1	1.4
- COc1ccccc1Nc1nc(N2CCCCC2)ncc1F
 : 0.72	-1.3
- COC(=O)c1ccccc1NC(=O)C1CC(c2cc(OC)ccc2OC)=NO1 (stereo not drawn)
 : 1	0.079
- CCOc1ccc(NS(=O)(=O)c2ccc3c(c2)CCN3C(=O)CC)cc1
 : 0.81	-0.78
- CCCC1=Nc2cc(C(=O)NC3CCN(C(=O)OCC)CC3)ccc2Sc2ccccc21
 : 0.93	-0.81
- O=C(Nc1c2c(nn1-c1ccc(F)cc1)CS(=O)(=O)C2)c1cccs1
 : 0.97	-0.34
- CCCSc1oc(-c2cccs2)nc1S(=O)(=O)c1ccccc1
 : 0.98	-0.038
- CC(C)Oc1ccc(C(CC(=O)N2CCCCC2)c2ccccc2)cc1 (stereo not drawn)
 : 1	1.9
- COc1cc(OC)cc(C(=O)Nc2nc3ccc(S(C)(=O)=O)cc3s2)c1
 : 1.1	0.82
- CCCN1CCN(C(=O)c2ccc3c(c2)NC(=O)c2ccccc2S3)CC1
 : 1	0.34
